RE007 growth inh = less growth of the S. pombe RE007 Vpr strain; S. pombe RE007 Vpr strain, BacTiter-Glo ATP luminescence, 24 h; control for the full effect not named in the record; Potency, µM (highest dose often 92.2 µM), without a hit: top-dose activity change, negative = less growth; actives 0.21% (n = 360,000); active = well fitted falling curve with a large enough effect; inconclusive = small, poorly fitted or top-dose-only effect; inactive = no such curve, though single readings can be large or run the other way;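 note: nearly all actives have a fitted effect of over 50% in size; the assay follows cell death caused by Vpr and the record does not say whether a fall means rescue or toxicity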
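Fission yeast RE007 carrying one integrated HIV-1 vpr copy, seeded at OD 0.01 in PMG+AL medium with 23 nL pinned compound. Grown 24 h at 30 degrees; viability read by BacTiter-Glo luminescence after 5 min.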
StopGo reporter = lowers the luciferase signal of an FMDV 2A StopGo reporter | human cells with a luciferase reporter of 2A StopGo recoding; control for the full effect not named in the record | Potency, µM (series often up to 57.9 µM), without a hit: at the top dose signal change, negative = less light | actives 1.2% (n = 410,000) | AID 1159524; active = well fitted falling curve with a large enough effect; inconclusive = small, poorly fitted or top-dose-only effect; inactive = no such curve, though single readings can be large or run the other way; tested in HEK293T cells; note: nearly all actives have a fitted effect of over 45% in size; luciferase light after 4 h
Active calls of the source: *; u = inconclusive; [ ] = another dose, or the depositor's remark. % is set by controls: 0 for no effect and ±100 for the full control effect; potency is the fitted concentration of half-maximal effect. These rows are one share of the data; the hit share may differ from the screen's.

canonical_smiles	RE007 growth inh	StopGo reporter
CC(C)(C)c1ccc(C(O)c2ncc(-c3ccccc3F)[nH]2)cc1 (stereo not given)	-11%	44%[activator]
OC1c2cc(Br)ccc2N=C2CCCCCN21 (stereo not given)	-9%	2%
FC(F)(F)c1cc(Cl)c2nc(-c3ccc(Cl)cc3)c(Cc3ccccc3)n2c1	6%	-11%
C[C@@H]1CN([C@@H](C)CO)C(=O)c2cc(-c3ccccc3F)cnc2O[C@H]1CN(C)Cc1cccc(F)c1	-14%	-6%
Cn1cc([C@]2(O)C(=O)Nc3ccc(OC(F)(F)F)cc32)c2ccccc21	2%	-16%
OCCCNc1ncnc2c1ncn2[C@H]1CN(C2CCCC2)C[C@@H](CO)O1	8%	-15%
CC(C)c1ccccc1NC(=O)Nc1nnc([C@H]2C[C@H](O)[C@@H](CO)O2)s1	0%	-7%
CC(=NOC(=O)c1ccc(I)cc1)c1nccs1	-28%	0%
Cc1ccccc1CN1Cc2cnnn2-c2ccccc2C1C#N (stereo not given)	-3%	13µM*
CC1(C(=O)NS(=O)(=O)c2cccs2)CCN1C(=O)CCc1ccc(Cl)cc1Cl (stereo not given)	15%	-7%
COc1ccccc1N1CCN(C2CCCN(C(=O)c3cc(C(C)C)on3)C2)CC1 (stereo not given)	-14%	-14%
O=C(NCCc1ccccc1F)C1C(=O)Nc2ccccc2C(=O)N1C1CCCCC1 (stereo not given)	0%	3%
CCOC(=O)[C@]12CCC=C1N(Cc1ccc3c(c1)OCO3)C(=O)[C@H](CC(=O)NCCCCc1ccccc1)C2	9%	-10%
CC1(C(=O)Nc2ccc3c(c2)OCO3)CCN1C(=O)Cc1ccc(-c2ccccc2)cc1 (stereo not given)	-3%[18.4 µM]	0%
Cc1cnc(CNC(=O)c2csc(COCCO)n2)cn1	1%	-19%
COC(=O)[C@]12CCCCC=C1N(Cc1ccc3c(c1)OCO3)C(=O)[C@H](CC(=O)N1CCCC1)C2	0%	-14%
O=C1NC(Cc2ccccc2)c2nc3cc(F)c(F)cc3c(=O)n2-c2ncccc21 (stereo not given)	-22%	-18%
Cc1c(C(=O)NCc2ccc3c(c2)OCO3)sc(=O)n1Cc1ccc(S(C)(=O)=O)cc1	-9%[18.4 µM]	u
O=C(Nc1nnc([C@H]2C[C@H](O)[C@@H](CO)O2)s1)c1ccc(Oc2ccccc2)cc1	-3%[18.4 µM]	2%
C[C@@H]1Cn2cnc(C(=O)N[C@@H](C)C(=O)OC(C)(C)C)c2C(=O)N1	-3%	-20%
Cc1noc(C)c1CSCC(=O)OCC(=O)Nc1ccc(OC(F)(F)F)cc1	0%	-8%
C=CCCC(=O)N1C[C@H]2CON(C)[C@H]2C[C@H]1c1cccc(Br)c1	15%	-2%
CCOC(=O)C1(C)CCN1C(=O)c1cccs1 (stereo not given)	-8%	-22%
CC1(C(=O)O)CCC2(C)CCC3(C)C(=CC(=O)C4C5(C)CCC(=O)C(C)(C)C5CCC43C)C2C1 (stereo not given)	-7%	-18%
CC(O)(c1ccccc1)c1nc(-c2ccc(F)c(Cl)c2)cs1 (stereo not given)	u	-20%
CC1(C)CC(=O)C=C(c2n[nH]nc2-c2ccccc2)C1	-11%	-3%
CCCCC[C@@H](/C=C/C1C(=O)C=C[C@H]1C/C=C\CCCC(=O)O)OC(C)=O (stereo not given in full)	-18%	35µM*
N#Cc1ccc(CN2Cc3ccccc3-n3nncc3C2)cc1	23%	-11%
CC(=O)c1cccc(Nc2ccc(C#N)cc2)c1	-3%	21%
O=C(c1[nH]c(C(F)(F)F)nc1-c1ccccc1)N1CCN(c2ccncc2)CC1	-8%	-16%

A stretch from further up, for reference:
canonical_smiles	RE007 growth inh	StopGo reporter
OC1c2cc(Br)ccc2N=C2CCCCCN21 (stereo not given)	-9%	2%
FC(F)(F)c1cc(Cl)c2nc(-c3ccc(Cl)cc3)c(Cc3ccccc3)n2c1	6%	-11%
C[C@@H]1CN([C@@H](C)CO)C(=O)c2cc(-c3ccccc3F)cnc2O[C@H]1CN(C)Cc1cccc(F)c1	-14%	-6%
Cn1cc([C@]2(O)C(=O)Nc3ccc(OC(F)(F)F)cc32)c2ccccc21	2%	-16%
OCCCNc1ncnc2c1ncn2[C@H]1CN(C2CCCC2)C[C@@H](CO)O1	8%	-15%

New compounds follow:
canonical_smiles	RE007 growth inh	StopGo reporter
COc1ccc(NC(=O)C2(C)CCN2C(=O)Cc2ccc(Cl)cc2Cl)cc1OC (stereo not given)	4%[18.4 µM]	-27%
COc1ccc(C[C@H]2NC[C@H](O)[C@H]2OC(C)=O)cc1	-16%[18.4 µM]	u
CCCCCCn1c(=O)n2n(c1=O)[C@@H]1CN(S(=O)(=O)c3ccc(C)cc3)C[C@]1(O)[C@@H](OC(=O)NCc1ccc(OC)c(OC)c1)C2	-1%	u
CCOC(=O)[C@]12CCCC=C1N(Cc1cccc3ccccc13)C(=O)[C@H](CC(=O)NCc1ccc(OC)c(OC)c1)C2	2%	u
COc1ccccc1C(CNC(=O)c1cccc(S(=O)(=O)N2c3ccccc3CC2C)c1)N(C)C (stereo not given)	-15%	-1%
OCCOCCn1c(C(CO)Nc2nc(-c3ccc(Cl)cc3)cs2)nc2ccccc21 (stereo not given)	u	2%
O=c1[nH]c2cc3ccccc3cc2nc1-c1nnnn1C1CCCC1	-1%	-28%
Cc1c(N(C)S(=O)(=O)c2ccc(Cl)c(C(=O)NCC(C)(C)N3CCOCC3)c2)c(=O)n(-c2ccccc2)n1C	-17%	-13%
NC(CCc1ccccc1)c1csc(NC(=O)Nc2cccc(Cl)c2)n1 (stereo not given)	10%	-20%
CC(=Cc1ccccc1)C=C1SC(=S)N(CCCC(=O)Nc2ccc(C(=O)O)c(O)c2)C1=O	-17%	23%
CN(CCc1ccccc1)C(=O)c1ccc(NC(=O)Cc2ccc(NC(=O)C3CCCN(S(=O)(=O)c4cccc([N+](=O)[O-])c4)C3)cc2)cc1 (stereo not given)	1%	-29%
CC1CCCCC1NC(=O)CSc1nnc(C(F)(F)F)n1C (stereo not given)	1%	-19%
C[C@H](O)[C@@H]1C(=O)N2CCc3ccc(-c4ccccc4)cc3[C@@H]2C[C@@H]1N(C)C(=O)NC1CCCCC1	4%	-17%
CCCNC(=O)C1(C)CCN(C(=O)c2cc(F)ccc2C)C1 (stereo not given)	6%	-14%
C=CCN1[C@H](COCc2ccccc2)C=CS1(=O)=O	6%	-10%
O[C@@H]1C[C@H](c2ccc(Cl)cc2)N(CC2CCCCC2)C[C@H]1n1cc(C2CC2)nn1	0%	-17%
Cc1ccc(C(NC(=O)C2CCN(Cc3ccc(Cl)c(Cl)c3)CC2)c2ccccn2)cc1 (stereo not given)	8%[18.4 µM]	-5%
O=C(Nc1cc(Cl)cc(Cl)c1)N1Cc2ccccc2-n2nncc2C1	-6%	u
C[C@H]1CN([C@@H](C)CO)S(=O)(=O)c2ccc(C#CC3(O)CCCC3)cc2O[C@@H]1CN(C)C(=O)Cc1cccnc1	30%	51%[activator]
CCOC1=C2[C@@H](CN(S(=O)(=O)c3ccc(C)cc3)[C@H]2c2ccccc2)[C@H]2C(=O)N(c3ccccc3)C(=O)[C@H]2C1	7%	17%
CCN(C)C1CN(Cc2cn(Cc3cc(C)cc(C)c3)nn2)S(=O)(=O)C1 (stereo not given)	-16%	-6%
COC(=O)c1ccc(-c2nc(CN3CCN(C(=O)c4ccco4)CC3)c(C)o2)cc1	-5%	-15%
CCOC(=O)[C@]12CCCC=C1N(Cc1ccc3c(c1)OCO3)C(=O)[C@H](CC(=O)NCCCOC)C2	15%	-14%
COc1ccc(NC(=O)c2cc(C3CCCCN3C(=O)c3ccc(C#N)cc3)on2)c(C)c1 (stereo not given)	5%	-11%
Cc1ccc(C)c(N2CCN(C(C(=O)NC3CCCC3)C(C)C)CC2)c1 (stereo not given)	14%	-13%
N#CC(CC(=O)OCc1ccccc1)NC(=O)OCc1ccccc1 (stereo not given)	-2%	3%
CCOC(=O)C1=C[C@@H](C(C)(C)C)N(S(=O)(=O)c2ccc(OC)cc2)[C@H]1c1ccccc1	5%	-29%
O=C(CCNC(=O)c1ccccc1Cl)Nc1ccc2c(c1)OCCO2	0%	22%
CCCC(=O)N1CCC1(C)C(=O)NS(=O)(=O)c1ccc(C#N)cc1 (stereo not given)	-12%[18.4 µM]	-17%
CCN(CC(=O)Nc1cccc(F)c1)CC(=O)Nc1ccc2c(c1)OCCO2	5%	-2%
COc1ccc(Cc2nc3ccc(C(=O)NC(C)C)cc3o2)cc1	22%	66%[activator]
Cc1cc2oc(=O)cc(CN3CCN(c4ccc(Cl)c(Cl)c4)CC3)c2cc1Cl	5%	-12%
O=C(CSc1nnc(-c2c[nH]c3ccccc23)n1C1CC1)NC1CCS(=O)(=O)C1 (stereo not given)	3%	0%
C=CC[N@@+]12CC[C@]34c5ccccc5N5/C=C6\C7N(/C=C(\C53)[C@@H](C[C@@H]41)/C(=C/CO)C2)c1ccccc1[C@@]71CC[N@@+]2(CC=C)C/C(=C\CO)[C@@H]6C[C@@H]12 (stereo not given in full)	-14%	-19%
CCc1nc2c(OCc3ccc(C(=O)OC)cc3)cccn2c1N(C)C(=O)c1ccc(C)cc1	-13%	-21%
CCN(C(=O)COC(=O)/C=C/c1ccc(Cl)c(Cl)c1)c1c(N)n(Cc2ccccc2)c(=O)[nH]c1=O	-16%	u
CC[C@H](C)[C@@H](COC=O)NC(=O)[C@H]1O[C@@H](n2ccc(N)nc2=O)[C@H](O)[C@@H]1O	-5%	-9%
NCc1csc(Nc2cc(Oc3ccccc3)ncn2)n1	-4%	4%
CC1(C(=O)NS(=O)(=O)Cc2cccc(Cl)c2)CCN1C(=O)Cc1ccccc1 (stereo not given)	11%	-5%
OC(c1cccc(Cl)c1)c1nc(-c2ccoc2)cs1 (stereo not given)	12%[18.4 µM]	-19%
COc1ccc(CSc2ccc(S(=O)(=O)N3CCCC3)cn2)cc1F	5%	0%
CC(C)(C)c1ccc(C(=O)N2CCC2(C)C(=O)NS(=O)(=O)c2ccc(C#N)cc2)cc1 (stereo not given)	13%	-12%
CN(C(=O)c1cccc(NC(=O)Cc2ccc(NC(=O)C3CCCN(C(=O)C4CCC4)C3)cc2)c1)C1CCCC1 (stereo not given)	4%	u
Nc1nc2cc3c(cc2cc1C(=O)NCc1ccc(F)cc1)OCO3	-12%	u
Cc1ccc(C2C(C(=O)c3cc4ccccc4o3)=C(O)C(=O)N2CCN(C)C)o1 (stereo not given)	6%	21%
COc1cc(OC)cc(C(=O)N[C@H](C(=O)OCC(=O)N2CCN(S(=O)(=O)c3ccc(C)cc3)CC2)C(C)C)c1	3%	-13%
Cc1ccc(S(=O)(=O)N2C3CCCCC3O[C@H]2CC(=O)c2ccccc2)cc1 (stereo not given in full)	-7%	18%
C[C@@H]1CCCCO[C@H](CN(C)C(=O)Nc2ccc(F)cc2)[C@@H](C)CN([C@H](C)CO)C(=O)c2cc(NC(=O)c3ccccc3)ccc2O1	0%	-10%
CC(=O)Nc1cccc(-c2ccnc3c2CC(C(=O)NC(C)C)O3)c1 (stereo not given)	10%	-6%
COc1cc(OC)cc(C(=O)Nc2cccc(NC(=O)c3cccs3)c2)c1	-3%	-1%
CCc1c(-c2ccccc2OC)ncn1Cc1cccc(-c2ccccc2)c1	u	0%
OC(c1ccc(-c2ccccc2)cc1)c1ncc(-c2ccc(C(F)(F)F)cc2)[nH]1 (stereo not given)	13%	-23%
CC1=CP(=O)(Oc2ccc([N+](=O)[O-])cc2)CC1 (stereo not given)	-5%	-12%
CCCCCCN1C[C@@H](O)[C@H](n2cc(C3CC3)nn2)C[C@@H]1c1ccc(C)cc1	-13%	-19%
O=C(Nc1cccc2ccccc12)c1[nH]c(-c2ccccc2)c2c1C(=O)N(C1CC1)C2=O	8%	-23%
CCCCn1nnnc1C(c1ccccc1)N1CCN(C(C)=O)CC1 (stereo not given)	15%	-13%
O=C(Nc1cc(C(F)(F)F)ccc1N1CCCC1)C1CC(=O)N(Cc2ccccc2)C1 (stereo not given)	3%	-8%
C[C@@H]1CN([C@H](C)CO)C(=O)c2cc(Br)cnc2O[C@@H]1CN(C)C(=O)C1CCOCC1	-4%	0%
CCCCN(C=O)c1c(CC)nc2c(OCc3cccc(Cl)c3)cccn12	-10%	0%
CSCCC(NS(=O)(=O)c1cccc(C(F)(F)F)c1)C(=O)N1CCN(C(=O)c2ccco2)CC1 (stereo not given)	2%	-9%
CC1(C(=O)NCCc2ccccc2)Cc2c(-c3ccc(C(N)=O)cc3)ccnc2O1 (stereo not given)	-2%	-8%
Nn1c(SCC(=O)N2CCCC2)nnc1C1CCCCC1	-5%	-4%

Assay outcomes (PubChem)
